N370S GC mod – N370S glucocerebrosidase modulation, Gaucher chaperone candidate. P04062. N370S GC spleen homogenate, 4MU-glucoside fluorescence. AID 2101. Potency, µM (top dose mostly 59.4 µM), without a hit: at the top dose activity change, negative = inhibition, actives largely listed as inhibitors. 330,000 compounds, 0.092% hits;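 note: 0% = full enzyme activity and -100% = no enzyme basal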
FEN1 inhibitor – inhibitors of human flap endonuclease 1; Recombinant FEN1 flap cleavage, fluorescence, 15 min; 390,000 compounds, 0.35% hits; AID 588795; Potency, µM (series often up to 114 µM), without a hit: at the highest dose activity change, negative = inhibition, usual class: inhibitors; note: nearly all actives have a fitted effect of over 65% in size
Target sequence (P39748 whole entry, looked up): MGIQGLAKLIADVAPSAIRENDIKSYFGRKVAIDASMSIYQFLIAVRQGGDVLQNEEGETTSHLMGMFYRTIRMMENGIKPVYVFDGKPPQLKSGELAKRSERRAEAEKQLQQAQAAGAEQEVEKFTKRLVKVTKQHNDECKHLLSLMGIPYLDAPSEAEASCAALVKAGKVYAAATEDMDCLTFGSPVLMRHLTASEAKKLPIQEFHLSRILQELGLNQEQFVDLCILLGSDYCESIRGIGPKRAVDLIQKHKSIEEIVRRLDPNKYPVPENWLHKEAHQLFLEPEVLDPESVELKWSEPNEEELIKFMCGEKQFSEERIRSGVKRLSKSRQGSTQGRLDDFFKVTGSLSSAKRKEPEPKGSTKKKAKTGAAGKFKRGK
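In this screen, 50 nM flap DNA substrate was added to 10 nM FEN1 pretreated with compound for 15 min at room temperature; cleavage was followed with reads at 0 and 15 min, and Hill fitting gave concentration–response parameters.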
An asterisk follows results filed as active; ? = inconclusive; / = not tested or not shown; & = joins results of further samples; [ ] = remark or other dose. Calls come from the whole dose curve; as a rule, active = well fitted curve in the direction sought with a large enough effect; inconclusive = small, poorly fitted or top-dose-only effect, or another doubt; inactive = no such curve, though single readings can be large; an effect the other way counts as inactive or inconclusive. Unless noted, % is set by controls: 0 for no effect and ±100 for the full control effect; potency is the fitted concentration of half-maximal effect. These rows are one share of the data; most or all hits stand in other tables.

| N370S GC mod | FEN1 inhibitor | structure |
| --- | --- | --- |
| / | -4% | CC(=O)c1c(C)[nH]c(C(=O)C(C)Sc2nnc(NC3CC3)s2)c1C (stereo not given) |
| 5% | -3% | Cc1ccc(C(=O)N2CCN(c3ccc(NC(=O)c4cccs4)cc3)CC2)cc1 |
| ? | -5% | CCN(CC)Cc1cc(CCNC(=O)c2ccc(Cl)cc2)ccc1O |
| -17% | 4% | Cc1ccc2[nH]c(C(=O)NCCN3CCCC3)cc2c1 |
| -29% | 3% | CCOc1ccccc1NC(=O)c1cnc2n(c1=O)CCS2 |
| -2% | 5% | COc1ccc(CNC(=O)C2COc3ccccc3O2)cc1 (stereo not given) |
| 23% | -2% | COc1ccccc1N(CC(=O)N(c1ccccc1)C(C)C)S(=O)(=O)c1cccs1 |
| 11% | -14% | COc1cccc(NC(=O)c2ccccc2-c2ccccc2)c1 |
| -3% | -16% | CC(=O)c1cccc(NC(=O)CN2CCc3cc4c(cc3C2C)OCCCO4)c1 (stereo not given) |
| 6% | 9% | CCc1nnc(NC(=O)CN2C(=O)c3ccccc3S2(=O)=O)s1 |
| 4%[12.8 µM] | 1% | COC(=O)CCC(=O)OC1(C)C(=O)C2=CN(Cc3ccc4c(c3)OCO4)C(c3ccc(OC)cc3)=CC2=C(Br)C1=O (stereo not given) |
| -6% | -17% | COc1ccc([C@@H]2C(C#N)=C(N)S[C@@H](c3ccccc3)[C@@H]2[N+](=O)[O-])cc1 |
| 20% | -11% | CCOC(=O)c1ccccc1NC(=O)CN(c1ccccc1OC)S(C)(=O)=O |
| 1% | 3% | O=C(C1CCCN(Cc2nc(-c3ccc(Cl)cc3)no2)C1)N1CCOCC1 (stereo not given) |
| 15% | -4% | CCCc1nn(C)c(C(=O)Nc2ccc(CC)cc2)c1Cl |
| 14% | -11% | c1ccc(OCCOCCN2CCN(C(c3ccccc3)c3ccccc3)CC2)cc1 |
| -4%[2.35 µM] | -7% | CC(=O)C1=C(C)NC(SCC(=O)c2ccc(Cl)cc2)=C(C#N)C1c1ccco1 (stereo not given) |
| 6% | -7% | COc1ccc(C(=O)O/N=C(/c2ccccc2)c2ccncc2)cc1OC |
| / | 9% | Cn1nnnc1SCCCNCc1cccc(OCc2ccc(Cl)cc2)c1 |
| -4% | -4% | C#CCNC(=O)C1=C[C@H](c2ccccc2)C[C@H](OCCCCO)O1 |
| / | -21% | Cc1ccc(C(=O)N2CCN(c3ccccc3F)CC2)cc1NC(=O)c1nsc2ccccc12 |
| -1% | -2% | Cc1n[nH]c(=O)c2c(NC(=O)CSc3nnc(C4CC4)n3C)oc(C)c12 |
| / | -17% | Cc1cccc(C(=O)OCC(=O)c2ccc3c(c2)OCCO3)c1O |
| -1% | 3% | CC(C)NC(=O)c1ccccc1NC(=O)/C=C/c1cccc([N+](=O)[O-])c1 |
| -12% | -11% | CCOC(=O)c1c(C)[nH]c(C)c1S(=O)(=O)N(C)CC(=O)Nc1ccccc1OC |
| -5% | 10% | COC(=O)N/N=C(\C)c1ccc(-n2ccnc2)cc1 |
| -12% | -2% | CC(C)C(c1nnnn1Cc1ccc(F)cc1)N1CCC(C(N)=O)CC1 (stereo not given) |
| -5% | 1% | CC1(C)CC(=O)C2=C(C1)N(c1ccccc1)C(=O)C2(O)C(F)(F)F (stereo not given) |
| / | -3% | COc1ccc(OC)c(CNC(=O)c2ccc(-c3nc(CSc4ccccc4)c(C)o3)cc2)c1 |
| -9% | 12% | c1ccc(-n2cc(CN3CCCC(CN4CCCC4)C3)c(-c3ccc4c(c3)OCO4)n2)cc1 (stereo not given) |
| 5% | 0% | CCn1nnnc1SCC(=O)c1ccc(C)cc1 |
| 12% | -18% | COc1ccc(C2C(C#N)=C(N)Oc3cc4c(cc32)OCO4)cc1 (stereo not given) |
| -10% | 0% | COc1ccc(C)cc1NC(=O)COC(=O)C1CCN(C(=O)c2ccc(Cl)cc2)CC1 |
| 2% | -1% | CC(=O)N1CCCC(C(=O)c2ccc(Oc3ccccc3)cc2)C1 (stereo not given) |
| 11% | 1% | Cc1ccc(S(=O)(=O)C2(C(=O)NC3CCCC3)CC2)cc1 |
| 3% | 1% | CCCN(C(=O)CSCc1ccccc1C)c1c(N)n(Cc2ccccc2)c(=O)[nH]c1=O |
| 12% | 7% | Cn1cccc1/C=C1\SC(=S)N(NC(=O)c2ccccc2Cl)C1=O |
| 0% | 5% | CCOC(=O)C(C)n1cnc2c1c(=O)[nH]c(=O)n2C (stereo not given) |
| / | -11% | CC1CC1C(=O)N(C)CC(=O)Nc1ccccc1Br (stereo not given) |
| -11% | -16% | CCNS(=O)(=O)c1ccc2nc(NC(=O)c3cccnc3)sc2c1 |
| 8% | 9% | COc1cccc(C(=O)NNC(=O)c2ccccc2Br)c1 |
| 5% | 5% | O=C(c1noc2c1CCCC2)N1CCN(c2ccccc2)CC1 |
| 6% | -6% | COc1ccc(CNC(=O)Cc2c(C(=O)O)[nH]c3ccccc23)cc1 |
| 3% | -3% | COc1cc2c(cc1OC)CN(C(=O)COc1ccc(C#N)cc1)CC2 |
| -1% | -11% | O=C(OCC(=O)N1CCc2ccccc21)c1cc(S(=O)(=O)N2CCOCC2)ccc1F |
| -5%&-4%[12.8 µM] | / | O=C1C[C@@H](O)[C@@H](O)[C@H]2[C@@H]3C(=O)N(Cc4ccc5c(c4)OCO5)C(=O)[C@@H]3CC[C@H]12 |
| / | -10% | CCOC(=O)c1cc(-c2ccccc2C)n(Cc2cc(C)no2)n1 |
| / | -6% | O=C(Nc1cccc(Cl)c1)c1nc[nH]c1C(=O)NCCCCNC(=O)c1[nH]cnc1C(=O)Nc1cccc(Cl)c1 |
| -1% | -14% | O=C(OCC(=O)N1CCN(C(=O)c2ccco2)CC1)c1ccccc1C(=O)c1ccc(Cl)cc1 |
| 6% | 22% | Cc1ncc([N+](=O)[O-])n1CCOC(=O)c1ccccc1 |
| 7% | 0% | CC(C)(C)c1ccc(C(=O)N2CCC(=O)N(C(CO)Cc3ccccc3)CC2)cc1 (stereo not given) |
| -3% | 17% | Fc1ccc(-n2nnc(-c3nccs3)n2)cc1 |
| 0% | 17% | COc1cccc(C(C)NC(=O)c2ccncc2)c1 (stereo not given) |
| ? | -6% | CC1CC(=O)N(CC(=O)Nc2ccc(Br)cc2)c2ccccc2S1(=O)=O (stereo not given) |
| -3% | -9% | CCN(CC)S(=O)(=O)c1cccc(C(=O)N/N=C/c2ccccn2)c1 |
| -5% | -10% | Clc1ccc(Cc2nc(-c3cccnc3)no2)cc1 |
| 7% | -3% | COCC(=O)NNC(=O)c1ccccc1OC |
| / | 6% | CCN(C(=O)CSc1nc2ccccc2nc1Cc1cccc(OC)c1)c1cccc(C)c1 |
| -11% | 2% | Cc1cc(C(=O)COC(=O)Cc2n[nH]c(=O)c3ccccc23)c(C)n1-c1ccc2c(c1)OCCO2 |
| 6%[12.8 µM] | 6% | CCOC(=O)c1c(-c2ccccc2)n(C)c2ccc(O)cc12 |

Given as labelled records: four of the compounds above.
compound: COCC(=O)NNC(=O)c1ccccc1OC
  N370S GC mod: 7%
  FEN1 inhibitor: -3%

compound: CCN(C(=O)CSc1nc2ccccc2nc1Cc1cccc(OC)c1)c1cccc(C)c1
  N370S GC mod: /
  FEN1 inhibitor: 6%

compound: Cc1cc(C(=O)COC(=O)Cc2n[nH]c(=O)c3ccccc23)c(C)n1-c1ccc2c(c1)OCCO2
  N370S GC mod: -11%
  FEN1 inhibitor: 2%

compound: CCOC(=O)c1c(-c2ccccc2)n(C)c2ccc(O)cc12
  N370S GC mod: 6%[12.8 µM]
  FEN1 inhibitor: 6%

Some of the entries so far, with values under each structure.
Values run as follows: N370S GC mod | FEN1 inhibitor
> Fc1ccc(-n2nnc(-c3nccs3)n2)cc1
 : -3% | 17%
> COc1cccc(C(C)NC(=O)c2ccncc2)c1 (stereo not given)
 : 0% | 17%
> CC1CC(=O)N(CC(=O)Nc2ccc(Br)cc2)c2ccccc2S1(=O)=O (stereo not given)
 : ? | -6%
> CCN(CC)S(=O)(=O)c1cccc(C(=O)N/N=C/c2ccccn2)c1
 : -3% | -9%

Next results:
| N370S GC mod | FEN1 inhibitor | structure |
| --- | --- | --- |
| -26% | 13% | COc1ccc(OCCCC(=O)Nc2nc(-c3ccccn3)cs2)cc1 |
| -2% | -11% | Cc1ccc(C(=O)NC(C)C(c2cccs2)N2CCCC2)s1 (stereo not given) |
| 1% | -6% | O=C(O)c1ccc(N=NN2CCCCC2)cc1 |
| 6% | -11% | C=CCNCc1cccn1-c1ccccc1 |
| -1% | -3% | CC#CC(=O)N1CCC(n2nccc2NC(=O)c2ccc3c(c2)OCO3)CC1 |
| 3% | 3% | O=S1(=O)CCN(Cc2ccc(Cl)c(C(F)(F)F)c2)CC1 |
| -1% | -1% | CC(NC(=O)c1ccco1)C(=O)N1CCN(C(c2ccccc2)c2ccccc2)CC1 (stereo not given) |
| -3% | 6% | CCCCNC(=O)c1cc2c(=O)n3cccc(C)c3nc2n(Cc2ccccc2)c1=N |
| 2% | 10% | CCN(CC)c1ccc(NC(=O)CSc2nc3ccccc3c(=O)[nH]2)cc1 |
| 5% | 2% | Cc1ccc(C(=O)Nc2ccc(C(=O)/C=C/c3cccs3)cc2)cc1 |
| 7% | -1% | CCCCNC(=O)NNC(=O)c1ccc(F)cc1 |
| 2% | 50%[activator] | CCn1cc(CNC(=O)C2CCC(=O)N(Cc3ccccc3F)C2)cn1 (stereo not given) |
| 2% | 3% | Cc1c(Br)c([N+](=O)[O-])nn1C(C)C(=O)Nc1c(C)n(C)n(-c2ccccc2)c1=O (stereo not given) |
| / | 16% | COc1ccc(CCNC(=O)COC(=O)/C=C/c2ccc3c(c2)OCO3)cc1 |
| 20% | 6% | CCOC(=O)C(NC(=O)CC)(N1CCc2ccccc2C1)C(F)(F)F (stereo not given) |

One compound at a time, from the list above. Values in the order: N370S GC mod, FEN1 inhibitor
Shown for Cc1ccc(C(=O)N2CCN(c3ccc(NC(=O)c4cccs4)cc3)CC2)cc1 = 5%, -3%
Shown for CC(NC(=O)c1ccco1)C(=O)N1CCN(C(c2ccccc2)c2ccccc2)CC1 (stereo not given) = -1%, -1%
Shown for O=C(C1CCCN(Cc2nc(-c3ccc(Cl)cc3)no2)C1)N1CCOCC1 (stereo not given) = 1%, 3%
Shown for C#CCNC(=O)C1=C[C@H](c2ccccc2)C[C@H](OCCCCO)O1 = -4%, -4%
Shown for CCN(CC)c1ccc(NC(=O)CSc2nc3ccccc3c(=O)[nH]2)cc1 = 2%, 10%

Other results
| N370S GC mod | FEN1 inhibitor | structure |
| --- | --- | --- |
| 1% | -14% | CCN(CC)CCCNC(=O)c1cn(CCOC)c(=O)c2c1c1ccccc1n2C |
| 1% | -3% | O=C(c1ccc(F)cc1)N1CCC(C(=O)N2CCN(S(=O)(=O)c3cccc([N+](=O)[O-])c3)CC2)CC1 |
| -5% | 4% | COc1ccccc1CNC(=O)CSc1ccc(-c2cccc([N+](=O)[O-])c2)nn1 |
| -6% | 4% | COc1ccccc1OCc1cc(C(=O)N2CCN(C)C(c3ccccc3)C2)no1 (stereo not given) |
| -4% | 0% | CCOC(=O)N1CCN(C(=O)Cn2ccc3ccccc3c2=O)CC1 |
| ? | 22% | CC(C)(C)OC(=O)NNC(=O)NC12CC3CC(CC(C3)C1)C2 |
| -3% | / | CCOc1ccc(NC(=O)CC)cc1 |
| / | 7%&-5% | C[C@@H](CSc1ccc(Br)cc1)CN1CC[C@H](NC(=O)OCc2ccccc2)CCC1=O |
| / | 20% | Nc1c(C(=O)Nc2ccccc2Cl)c2ccccn2c1C(=O)c1ccccc1 |
| 1% | 12% | CC(C)N1CC(C(=O)Nc2ccc(S(=O)(=O)N3CCCCC3)cc2)CC1=O (stereo not given) |
| -16% | -10% | CCC1=[N+](C)c2cccc3cccc(c23)N1C |
| 8% | 0% | COc1ccccc1/C=C(/CC(=O)NCc1ccc2c(c1)OCO2)c1nc2ccccc2s1 |

Compound activity from PubChem BioAssay.
